AID504770 – growth inhibitors of E. coli YBA685 in a screen for V. cholerae RctB (chromosome II replication) inhibitors. E. coli YBA685 rctB-dependent plasmid, OD600 growth, 3 h; hits give low values. z-score (test concentration not listed). hit rate 0.27% among 130,000;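 active = z-score under -2 on both plates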;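 note: wells of about 30 µL received 100 nL stock; score is relative to mean and SD of the test wells; the first replicate is given; strong numbers were not always called active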
Ba CapD inh – inhibitors of Bacillus anthracis CapD enzyme | purified CapD enzyme, fluorescence intensity read-out; hits give low values; some hits fall short of the stated cut | z-score (no concentration beside the values) | hit rate 0.23% among 140,000;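 active = z-score under -4 in either of two replicates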;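 note: stock transfer was 100 nL into about 40 µL; score is relative to mean and spread of the plate; one replicate is shown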
Starred values were filed as active, the others as inactive; i = inactive; . = no result given.

Structure,AID504770,Ba CapD inh
CC(=O)N/C(=N/c1nc(C)cc(C)n1)Nc1cccc(C)c1,0.7,-0.57
O=C(NC1CCCCC1)c1ccc2c(c1)[nH]c(=S)n1c3ccccc3nc21,.,-0.46
Cc1ccc(OCCOc2ccc(Oc3nc(N(C)C)nc(N(C)C)n3)nn2)cc1,.,-0.02
COc1ccc(N2C(=O)/C(=C/c3cc(Cl)c(OCC(=O)O)c(OC)c3)NC2=S)cc1,.,-2
Cc1ccc(-c2csc(-c3ccc(Cl)cc3)n2)c(C)c1,.,2.4
O=C(CSc1nc2ccccc2c(=O)[nH]1)c1ccc(O)cc1O,-0.4,.
CCOC(=O)c1c(C)oc2cc(Br)c(OCC(=O)OCc3ccccc3)cc12,.,0.53
CCCCN1C(=O)c2ccc(C(=O)NCc3ccco3)cc2C1=O,1.4,-0.34
NCCCN1CCN(Cc2ccccc2)CC1,-1.2,.
COc1ccc(Cl)cc1C(=O)N/N=C/c1cc([N+](=O)[O-])ccc1F,.,-0.25
C=CCNc1nc(N)c(C(=O)Nc2cc(C)on2)s1,-1.1,-0.37
O=C(O)CSCC(=O)NC1CCCCNC1=O (centres undefined),1.3,0.095
CC(=O)OC1N=C(c2ccccc2Cl)c2cc(Br)ccc2N(C)C1=O (centres undefined),.,-0.22
O=C(CN1CCN(CN2C(=O)NC3(CCCC3)C2=O)CC1)Nc1ccc(Cl)c(C(F)(F)F)c1,-0.8,.
O=C(Cc1csc(-c2ccccc2)n1)N/N=C/c1c[nH]c2ccccc12,.,-0.75
CN1C(=O)CC2CC1(C)Oc1ccccc12 (centres undefined),.,-0.67
C=CCN1C(=O)/C(=C2\SC(=S)N(CCc3ccc(OC)cc3)C2=O)c2ccccc21,-0.3,0.06
O=S(=O)(c1ccc(F)cc1)N1CCCc2ccccc21,-0.2,-0.91
NS(=O)(=O)c1ccc(N2N=C(C(F)(F)F)/C(=C/c3ccc(-c4ccc(C(=O)O)cc4)o3)C2=O)cc1,.,12
CCOC(=O)c1c(-c2cccs2)csc1NC(=O)c1cc2ccccc2oc1=O,.,-0.67
Cc1ccc(-c2nnc3c4cnn(-c5ccccc5)c4ncn23)cc1,-0.3,-0.55
O=C(c1cccs1)N1CCCN(CC(O)COc2ccc(Cl)c(Cl)c2)CC1 (centres undefined),0.6,0.17
O=C(Nc1cccc(-c2nc3ccccc3o2)c1)C1=COCCO1,0.35,0.81
Cc1cc(OCC(=O)NCc2cccnc2)c(C)cc1Br,1.9,-1.4
COc1ccc(/C=N/NC(=O)c2cc(C3CC3)nc3ccccc23)c(OC)c1,.,0.69

An excerpt of these results, with each value named:
> CCCCN1C(=O)c2ccc(C(=O)NCc3ccco3)cc2C1=O
  AID504770: 1.4; Ba CapD inh: -0.34

> C=CCN1C(=O)/C(=C2\SC(=S)N(CCc3ccc(OC)cc3)C2=O)c2ccccc21
  AID504770: -0.3; Ba CapD inh: 0.06

> CCOC(=O)c1c(C)oc2cc(Br)c(OCC(=O)OCc3ccccc3)cc12
  AID504770: .; Ba CapD inh: 0.53

> O=C(Nc1cccc(-c2nc3ccccc3o2)c1)C1=COCCO1
  AID504770: 0.35; Ba CapD inh: 0.81

Next part:
Structure,AID504770,Ba CapD inh
COc1cccc(N2CCN(C(=O)CCCn3sc4ccccc4c3=O)CC2)c1,-0.8,0.04
CCc1c(C)c(C#N)c2nc3ccccc3n2c1-n1cnc2ccccc21,0.1,0.09
Cc1cc(Oc2ccc(Cl)cc2)nc(-c2ccccn2)n1,0.75,0.24
C/C(N)=C(/C#N)C(=O)CSc1nc(-c2ccccc2)cn1N,0.7,.
CCN1C(=O)/C(=C/C=C2\N(C)c3c(ccc4cccnc34)C2(C)C)SC1=S,0.95,-0.31
O=C1CSC(c2cccnc2)N1CCN1C(=O)CSC1c1cccnc1 (centres undefined),-0.35,0.095
C/C=C/C1OCC2(CO)C(C)C=C(C)C1C2C (centres undefined),-0.55,-0.2
FC(F)(F)c1ccc(N=Cc2ccco2)cc1,-0.8,-0.54
CCOC(=O)C(Cc1c[nH]c2ccccc12)NC(=O)c1cc2ccccc2oc1=O (centres undefined),.,-0.21
CC(=O)Nc1ccc(/C=N/N2CCCCC2)cc1,0.5,.
O=C(NC1CCCC1)c1ccc(COc2ccccc2Br)o1,-0.2,0.26
CC12CC(C)(C)C(C#N)(C(N)=C1C#N)C(=C(C#N)C#N)N2 (centres undefined),0.7,.
O=C(CC(c1ccccc1)c1ccco1)N1CCCCC1 (centres undefined),2.2,-0.41
COc1ccc(N2C(=O)/C(=C/c3cc(OC)c(OC)c(OC)c3)N=C2c2ccccc2)cc1Cl,.,-0.4
Cc1sc(-c2cccs2)nc1-c1ccccc1,0.8,.
O=C(CNC(=O)c1cccc(F)c1)N/N=C/c1ccc([N+](=O)[O-])s1,.,-0.65
Cn1c(=O)n(C)c2cc(Nc3cc(SCc4ccccc4)ncn3)ccc21,-0.25,-0.22
COc1ccc(C(=O)N/N=C(\Cc2ncc[nH]2)c2ccccc2)cc1,-0.4,.
CS(=O)(=O)c1ccc(F)c(NC(=O)Nc2ccccc2)c1,.,-0.56
Cc1csc(=O)n1CCC(=O)OCc1cc(Cl)cc2c1OCOC2,-0.1,.
COc1ccc(CCCOC(=O)NCC(C)c2ccc(Cl)cc2)cc1 (centres undefined),.,-0.54
COc1cc(-c2nc(-c3nonc3N)no2)cc(OC)c1OC,0.55,0.33
CN(Cc1nc2ccccc2c(=O)[nH]1)C(=O)c1cc(Br)cc(Br)c1O,0.5,.
Cc1ccc(S(=O)(=O)NCc2ccccc2)cc1,-1,-0.005
c1ccc(-c2ccccc2-n2cnnn2)cc1,-0.9,-0.065

Of the compounds above, these contain a furan ring, fused or not.
Structure,AID504770,Ba CapD inh
CCOC(=O)c1c(C)oc2cc(Br)c(OCC(=O)OCc3ccccc3)cc12,.,0.53
CCCCN1C(=O)c2ccc(C(=O)NCc3ccco3)cc2C1=O,1.4,-0.34
NS(=O)(=O)c1ccc(N2N=C(C(F)(F)F)/C(=C/c3ccc(-c4ccc(C(=O)O)cc4)o3)C2=O)cc1,.,12
FC(F)(F)c1ccc(N=Cc2ccco2)cc1,-0.8,-0.54
O=C(NC1CCCC1)c1ccc(COc2ccccc2Br)o1,-0.2,0.26
O=C(CC(c1ccccc1)c1ccco1)N1CCCCC1 (centres undefined),2.2,-0.41

Next entries follow.
Structure,AID504770,Ba CapD inh
COc1cc2c(cc1OC)CN1C(=S)N(C)C(=O)C1C2 (centres undefined),-0.05,-0.065
COc1ccccc1C1CCN(C(=O)[C@@H](C)N2CCN(c3ccc(C(F)(F)F)cn3)CC2)CC1,-0.2,0.82
O=C(N/N=C\C1C(=O)NC(=S)N(c2ccccc2)C1=O)c1ccc(O)cc1 (centres undefined),0.15,-0.97
Cc1cc(-c2noc(-c3cccs3)n2)no1,-0.3,0.095
NC1=NC1C(=O)Nc1ccccc1 (centres undefined),0,0.5
Nc1c(C(=O)c2ccccc2)oc2ccc([N+](=O)[O-])cc12,.,-0.71
COc1ccccc1-c1nc(-c2cccc(C(F)(F)F)c2)no1,0.6,-0.005
Cc1cc(Cl)cc(Cl)c1CNC(=O)C(C)C,0.4,3.1
CCOc1ccc(NC(=S)N2C(C)CCCC2C)cc1 (centres undefined),0.65,-0.64
O=C(CCCn1c(=S)[nH]c2ccc(Br)cc2c1=O)NC1CCN(Cc2ccccc2)CC1,.,-0.65
CCC(C)n1nccc1N (centres undefined),0.05,.
Cc1cc(C)nc(N2CCC(C(=O)Nc3nnc(C(C)C)s3)CC2)n1,-0.55,.
S=P(N1CC1)(N1CC1)N1CC1,0.45,-0.39
CCOc1cccc(C2Nc3cccc4cccc(c34)N2)c1O,.,34
O=c1nc2s/c(=C/c3ccccc3Cl)c(=O)n2nc1Cc1ccccc1,.,-0.25
COc1cccc(CNCCc2cccc(F)c2)c1,-0.2,0.075
COC(=O)c1cc(-c2ccc(OC)cc2)n[nH]1,0.25,-1
O=P1(NCCCn2ccnc2)C=C(c2ccccc2)OC(c2ccccc2)=C1,-0.6,.
CCn1c2ccccc2c2cc(CN3CCC(NC(=O)OCc4ccc(F)c(C(F)(F)F)c4)C3)ccc21 (centres undefined),.,13
CC1(O)NC(=O)C2(C#N)C(C#N)(C#N)C12c1ccccc1 (centres undefined),-0.05,0.2
CCCN(C(=O)c1coc(=O)c2ccccc12)c1cccc(C)c1,-1.1,-0.42
COc1ccc(C2=NN(C(=O)c3cccs3)C(c3ccccc3F)C2)cc1OC (centres undefined),.,6.6
CC1CCC(NC(=O)COc2ccc(Cl)cc2Cl)(C(=O)Nc2cccc(Cl)c2)CC1 (centres undefined),.,-0.62
O=C1CC(Sc2ccc(Cl)cc2)C(=O)N1Cc1ccncc1 (centres undefined),-0.25,0.33
COC(=O)c1ccccc1NC(=O)C1CC(c2ccccc2OC)=NO1 (centres undefined),-0.55,3.8
COc1ccc(-c2coc3cc4oc(=O)ccc4cc23)cc1,1.1,4
c1csc(Cc2nc3ccccc3[nH]2)c1,-1.5,-0.36
Cc1ccc(NC(=O)N2c3ccccc3Sc3ccccc32)c(C)c1,0.45,2.8
CCCCOc1ccc(C2C(N3C(=O)c4c(Cl)c(Cl)c(Cl)c(Cl)c4C3=O)C(=O)N2c2ccc(Br)cc2)cc1 (centres undefined),.,-0.29
Cc1cc(C(=O)NNC(=O)/C=C/c2ccccc2F)nn1C,.,11
Cc1c2c(nc3c(C(=O)NC4CCCC(C)C4C)cnn13)CCCC2 (centres undefined),-0.6,0.76
COC(=O)c1ccc(-c2c(C#N)c(N)n3c(nc4ccccc43)c2C#N)cc1,.,-0.3
O=C(CSc1nnc(-c2ccc(F)cc2)o1)N(Cc1nc2ccccc2c(=O)[nH]1)CC1CCCO1 (centres undefined),1.3,.
CC1(N2CCOCC2)CC(=O)N(c2ccccc2)O1 (centres undefined),-0.75,.
CCOC(=O)c1sc(N)c(C#N)c1CSc1ncnc2sc(CC)cc12,0.75,.
COc1ccc(CN2CCCC(C(=O)N3CCCC3)C2)c(OC)c1OC (centres undefined),0.65,0.22
O=[N+]([O-])c1cccnc1Sc1ncc2ccccn12,.,-0.035
Cc1ccc(-c2noc(CCCC(=O)N(C)C)n2)cc1,2.1,-1.4
COc1ccc(-n2c(O)c(C=NCC(c3ccco3)N3CCCC3)c3ccccc3c2=O)cc1OC (centres undefined),0.65,.
Cc1ccccc1NC(=O)CSC1=C(C#N)C(c2cccs2)C2=C(CCCC2=O)N1 (centres undefined),.,6.1
COC(=O)c1ccc(-c2ccccn2)s1,-0.9,25
COCCCNC(=O)CSc1ccc2c3c(cccc13)C(=O)c1ccccc1-2,.,-0.65
COc1ccc(-n2c(O)c(C=NCc3ccccc3)c3ccccc3c2=O)cc1,0.75,-0.56
CN(C)C(=O)c1ccc(C(C)(C)C)cc1,-0.9,-0.18
c1ccc(OCCCCN2CCCCC2)cc1,-0.3,0.46
Cn1c(=O)oc2cc(S(=O)(=O)Nc3ccccc3)ccc21,2.2,.
COc1cccc(OCC(=O)Oc2ccc(C(=O)c3ccccc3)cc2)c1,0.6,i
CCc1cc2c(=O)c(-c3cscn3)coc2c(CN(C)C)c1O,2,12
CC(=O)OC1CC2CCC1N(Cc1ccccc1)C2=O (centres undefined),.,0.035
Cc1ccc(CNS(=O)(=O)NCc2ccc(Cl)cc2Cl)cc1,.,-0.5

The list goes on:
Structure,AID504770,Ba CapD inh
O=c1c2ccccc2nc(/C=C/c2cn(Cc3ccccc3)c3ccccc23)n1CCCO,.,-0.15
Cn1nccc1C(=O)NCCN1C(=O)OC2(CCCCC2)C1(C)O (centres undefined),-0.75,-0.14
COc1ccc(CC(=O)N2N=C(C)CC2(O)c2cccnc2)cc1OC (centres undefined),.,-0.38
CCc1ccc(NC(=O)CSc2nc3ccccc3c(=O)n2CCc2ccc(S(N)(=O)=O)cc2)cc1,-0.4,-0.24
Cc1ccc2c(c1)N(CC(=O)N1CCCCC1C)C(=O)CO2 (centres undefined),0.25,.
CCn1c2ccccc2c2cc(CN3CCC(NC(=O)OCC4CCCN(O)C4)C3)ccc21 (centres undefined),.,15
O=S(=O)(/N=C/c1c(O)ccc2ccccc12)c1cccs1,0.85,-0.77
FC(F)(F)c1cc(-n2nncc2-c2ccccc2)cc(C(F)(F)F)c1,.,0.84
Cc1c(NC(=O)[C@@H](NC(N)=O)C(C)C)c(=O)n(-c2ccccc2)n1C,0.45,.
Cc1c(NC(=O)CCN2C(=O)S/C(=C\c3ccc(Cl)cc3)C2=O)c(=O)n(-c2ccccc2)n1C,.,0.18
Cc1ccc(SCCC(=O)NN)cc1,-1.3,.
FC(F)(F)c1cccc(Cn2c(-c3cccnc3Cl)nc3ccccc32)c1,.,-0.6
CCN(CC)c1ccc(/C=c2\sc3n(c2=O)C(c2ccc(OC)cc2OC)C(C(C)=O)=C(C)N=3)c(OC)c1 (centres undefined),.,-0.28
O=C(COc1ccccc1)Nc1nnc(-c2ccc(Cl)cc2)o1,-0.15,1
O=C(Oc1ccccc1)c1c(-c2ccccc2)nnc2ccccc12,-0.4,0.07
Fc1ccc(Nc2c(-c3ccccc3)nc3ccccn23)cc1,-0.15,0.085
CSCCNC(=O)c1c(-c2c(Cl)cccc2Cl)noc1C,.,-0.44
Nc1cc(C(F)(F)F)ccc1N1CCOCC1,0.75,0.025
CN1C(=O)CSc2ccc(NC(=O)Nc3cccnc3)cc21,0.45,-0.31

A portion of the library; rates above refer to the full screens.
